# Autofluor counter – counter-screen for toxin protease inhibitors: compound fluorescence | compound autofluorescence counterscreen, microsphere flow cytometry; hits give high values | fluorescence intensity (no concentration beside the values) | 360,000 tested, 3.1% active | AID 624483;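 active means at least 3 SD above the mean of all compounds, about 16000 in these data; inconclusive means too few beads counted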;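 further: 100 nL of 1 mM stock went into each well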
# BJeLR viability – kills HRASV12-expressing BJeLR cells; 300,000 tested, 0.17% active; inhibition, % (no concentration beside the values); AID 1554; BJeLR (HRASV12) viability, CellTiter-Glo ATP luminescence, 48 h; reference of the scale not given here;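 active means replicate mean above 50%; inconclusive means above 50% but judged a plate artefact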;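 further: 50 nL library stock added to about 25 µL; numbers are from one replicate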
# Sa ugtP lethal – kills S. aureus RN4220 lacking UgtP | S. aureus RN4220 ugtP deletion, OD600 growth, 16 h; some inactives read as strong as hits | growth inhibition, % (test concentration not listed) | 330,000 tested, 0.54% active | AID 1259309;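 active means z-score under -3 and OD600 up to 0.15 on both plates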;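 further: plate controls were untreated wells for no effect and antibiotic for full effect; wells of about 80 µL received 100 nL stock; the first replicate is given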
# PrP UTR inh – suppresses PrP 5' UTR mRNA reporter expression; cell-based PrP 5' UTR mRNA reporter, plate reader; inhibition, % (test concentration not listed); 340,000 tested, 0.35% active;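 active means every replicate at 50% or more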;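 further: 0 = median of the neutral control wells; tested in H4 reporter cells; numbers are from one replicate; inactives centre near -14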
# Mtb hypoxia rep – Mtb hypoxia fluorescent reporter inhibition; M. tuberculosis hypoxia-regulated fluorescent reporter, fluorescence; fluorescence inhibition, % (concentration not given with the values); 300,000 tested, 0.1% active; AID 1159583;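 active means 35 to 45% if threefold the growth effect, above 45% if 1.5-fold the growth effect; inactive means the rest, general growth blockers included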;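 further: wells of about 50 µL received 100 nL stock; 0% = vehicle wells and 100% = reference inhibitor wells; whole bacteria with a GFP reporter of the hypoxia response; strong numbers were not always called active; many hits fall short of the cut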
# Sa RN4220 lethal – S. aureus RN4220 growth inhibition; inhibition, % (no concentration beside the values); AID 1259311; 330,000 tested, 0.33% active; OD600, 16 h;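 active means z-score of -3 or lower and OD600 up to 0.18 on both plates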;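 further: plate controls were untreated cells for no effect and reference antibiotic for full effect; stock transfer was 100 nL into about 80 µL; one replicate is shown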
# Mtb hypoxia rep growth – further read-out of Mtb hypoxia rep, marked with its call; growth inhibition, %; measured here: M. tuberculosis growth (absorbance);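 0% = vehicle and 100% = reference antibiotic; read after six days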
# * marks the source's active call; other numbers are inactive results; ? = inconclusive; / = no result given; & = joins results of further samples.
SMILES,Autofluor counter,BJeLR viability,Sa ugtP lethal,PrP UTR inh,Mtb hypoxia rep,Mtb hypoxia rep growth,Sa RN4220 lethal
CCOC(=O)N1CCN(C2CC(=O)N(c3ccc(F)cc3)C2=O)CC1 (stereo not given),10259,7,5,-25,10,9,8.5
Cc1cc(-c2ccc(F)cc2)nc2cc(C(N)=O)nn12,3826,8,-13,-16,3,2,6.9
Cc1ccc(-n2cc(CNC(C)c3cnn(C)c3C)c(-c3ccc(F)cc3)n2)cc1 (stereo not given),5658,6,4,-23,1,15,2.0
O=C(c1ccccc1)N1CCN(C(=O)c2ccc([N+](=O)[O-])cc2)CC1,2450,1,/,4,/,/,/
O=C1C(=O)N(CCN2CCOCC2)C(c2cccnc2)C1=C(O)c1ccc(Cl)cc1 (stereo not given),/,/,0,/,6,3,4.1
NC(Cc1ccccc1Sc1ccccc1)=NO,/,/,-1,/,4,5,0.9
O=C(CSc1ncnc2c1oc1ccccc12)NCc1ccco1,12269,-9,-3,-23,9,11,11
O=C(CCC1CCCN(c2ncccn2)C1)NCc1ccccc1F (stereo not given),2550,5,10,-9,13,3,1.3
CCOc1ccc(N(C)Cc2cc(=O)oc3ccc(OCC)cc23)cc1,3027,2,27,-12,8,0,6.3
CC1CCc2cc(F)ccc2N1C(=O)c1cnc2sccn2c1=O (stereo not given),5791,-4,15,-2,3,2,13
CC(=O)c1cccc(S(=O)(=O)N2CCC(n3nnc4cc(F)ccc43)CC2)c1,3732,9,-2,-25,10,5,-2.0
CCOc1cc(C(=O)NC)cc(OCC)c1OCC,9864,1,8,-18,8,6,1.5

# 3 entries out of the list, arranged by length of the SMILES, largest number first.
SMILES,Autofluor counter,BJeLR viability,Sa ugtP lethal,PrP UTR inh,Mtb hypoxia rep,Mtb hypoxia rep growth,Sa RN4220 lethal
CC(=O)c1cccc(S(=O)(=O)N2CCC(n3nnc4cc(F)ccc43)CC2)c1,3732,9,-2,-25,10,5,-2.0
O=C(c1ccccc1)N1CCN(C(=O)c2ccc([N+](=O)[O-])cc2)CC1,2450,1,/,4,/,/,/
O=C(CCC1CCCN(c2ncccn2)C1)NCc1ccccc1F (stereo not given),2550,5,10,-9,13,3,1.3

# Back to the main list with the 2 entries that preceded the break.
SMILES,Autofluor counter,BJeLR viability,Sa ugtP lethal,PrP UTR inh,Mtb hypoxia rep,Mtb hypoxia rep growth,Sa RN4220 lethal
CC(=O)c1cccc(S(=O)(=O)N2CCC(n3nnc4cc(F)ccc43)CC2)c1,3732,9,-2,-25,10,5,-2.0
CCOc1cc(C(=O)NC)cc(OCC)c1OCC,9864,1,8,-18,8,6,1.5
O=C1CCC(=O)c2ccc3c4c(ccc1c24)CC3,3943,/,-12,-12,-9,11,-3.7
S=C(Nc1ccc(Cl)cc1)c1nc2ccccc2s1,2730,10,-5,-47,/,/,-6.6
Cc1ccnc(SCC(=O)n2c3c(c4ccccc42)CC(C)CC3)n1 (stereo not given),10050,-11,3,-50,5,15,6.7
CCCCC(=O)NNC(=O)c1c(O)c2ccccc2[nH]c1=O,4292,-11,0,-18,12,6,5.4
Cc1ccc(-n2c(SCC(=O)NC3CCCCC3)nc3c(c2=O)SCC3)cc1,5308,9,5,-16,0,2,-0.8
COC(=O)c1sc2nc(N3CCCCC3)c3c(c2c1N)CCCC3,3233,-9,12,-7,16,13,-26
Cc1cc([N+](=O)[O-])ccc1NC(=O)C[n+]1ccc(N(C)C)cc1,4292,-4,6,-22,3,16,3.0
CC(=O)c1nn(-c2ccccc2)cc1C(=O)c1ccc(C)cc1,3312,-6,-1,/,0,9,3.3
C=CCN(C(=O)Cn1c(C(=O)OC)cc2oc(C)cc21)c1ccccc1,8001,0,-6,-18,2,-9,1.1
O=C(O)CC(Cn1cnnn1)c1ccccc1 (stereo not given),6483,1,-3,19,/,/,0.0
O=C(c1ccccc1)c1cc[n+]([O-])cc1,5143,14,5,-28,13,12,4.9
CCCOc1ccc(NC(=O)CC2C(=O)N(CC)C(=S)N2CCNC(C)=O)cc1 (stereo not given),6804,-3,2,-17,5,2,2.4
O=C(N/N=C/c1ccccn1)c1ccc(Cl)c(Cl)c1,4263,35,/,-10,/,/,/
Cn1cc(CN2CCN(CCO)CC2)c(-c2ccc(Oc3ccccc3)cc2)n1,3964,30,1,-21,17,10,2.9
COc1ccc(C(=O)NCc2cn3cccc(C)c3n2)cc1OC,6930,-1,-5,-9,6,8,-7.6
CC1CC(C)CN(S(=O)(=O)N2CCCC(C(=O)NCCc3ccc(Cl)cc3)C2)C1 (stereo not given),5338,3,-4,-18,5,7,2.5
O=C(NN1C(=O)/C(=C/C=C/c2ccccc2)SC1=S)c1ccncc1,2296,-5,-18,-20,-5,1,0.0
CCC(C)NS(=O)(=O)c1ccc(OCC(=O)NCc2ccc3c(c2)OCO3)cc1 (stereo not given),9859,5,2,-12,5,2,5.5
Cc1cccc(C(C(=O)NC2CCCC2)N(C(=O)c2csnn2)C2CCCC2)c1 (stereo not given),3368,-8,4,-18,-4,7,0.1
Cc1oc(-c2cc(F)ccc2F)nc1CN1CCN(c2cnccn2)CC1,4815,5,5,-1,12,14,3.0
O=C(c1ccc2nc(N3CCCCC3)sc2c1)N1CCN(Cc2ccc3c(c2)OCO3)CC1,6276,-4,-5,-27,0,3,-1.4
O=C(COC(=O)CC1CCCC1)Nc1ccc(Cl)cc1,5199,/,6,-12,5,9,-1.2
CCCC(=O)Nc1c(-c2cccs2)c(=O)c2ccccc2n1CC,/,-13,1,/,5,4,5.0
CC(C)(O)C#Cc1ccc(C(=O)N2CCN(c3ccc(F)cc3)CC2)cc1,3423,-9,5,-19,2,6,4.5
OCC[C@@H]1C[C@@H](O)[C@H](O)[C@@]2(CCCCO2)O1,4072,-3,/,-20,/,/,/
COC(=O)C1CN(C(=O)COc2ccc(Cl)c(C)c2)c2ccccc2O1 (stereo not given),3141,0,1,-9,-10,-3,0.7
CC(=O)c1ccc(OCC(=O)Nc2ccc(N3CCCCC3)cc2)cc1,6274,/,4,-7,-2,-3,3.3
O=C(c1ccccc1)c1ccc(OCCCN2CCCC2)cc1,2143,5,8,-17,12,2,2.8
C=CCNC(=O)NC(=O)COC(=O)c1ccccc1Sc1ccc(C(F)(F)F)cc1[N+](=O)[O-],2152,1,-1,-3,10,3,1.3
O=C(NNc1cccc(Cl)n1)c1ccccc1CC[N+](=O)[O-],3156,-9,1,6,4,0,3.3
Nc1nc2ccccc2[nH]1,2961,-1,14,-20,3,-5,3.0
O=C(c1cc(-c2cccc(Cl)c2)on1)N1CCOCC1,2764,-1,2,-30,0,-6,0.5
Cc1ccn2c(CN(C)CCn3nc(C)cc3C)c(C(=O)N3CCCCCC3)nc2c1,4659,1,5,-25,9,4,5.1
Cc1cccc(/C(N)=N/OC(=O)COc2ccc(Cl)c(C)c2)c1,2476,2,6,-14,10,8,3.5
OC1CCCN(Cc2ccc3ccc4cccc5ccc2c3c45)C1 (stereo not given),9122,-3,-13,-14,/,/,4.5
COc1ccc2nc(Nc3ccccc3OC)sc2c1,3426,3,-5,-46,-6,-2,-4.9
COc1cc(OC)cc(C(=O)N2CCC(C(=O)N3CCOCC3)CC2)c1,3417,3,4,-30,9,8,2.9
C=CCNC(=S)N/N=C(\C)c1ccc(-n2ccnc2)cc1,3376,-4,/,-14,/,/,/
COC(=O)c1sc2ccccc2c1-n1cccc1C(=O)C(=O)Nc1ccc(Cl)cc1,2229,0,13,-2,/,/,-5.2
COc1ccccc1-c1nnc(SCC(=O)Nc2oc(C)c3c(C)n[nH]c(=O)c23)n1C,6443,-4,1,-13,-6,0,1.1
Cn1nnnc1SCC(=O)N1CCN(C(=O)c2ccco2)CC1,4501,3,-2,-27,1,-12,-4.4
Cc1ccc(-c2nc(CN(C)C(C3CC3)C3CC3)c(C)o2)cc1,5131,-9,1,-27,4,3,-0.9
COc1ccc(C2=C(C=Nc3c(C)n(C)n(-c4ccccc4)c3=O)C(c3ccccc3C)c3ccccc3O2)cc1OC (stereo not given),3947,4,-4,-13,/,/,-3.1
Cc1ccc(-n2ncc(C(=O)N3CCN(C(=O)c4ccco4)CC3)c2C2CCN(C(=O)OC(C)(C)C)CC2)cc1C,?,-5,6,1,4,-4,3.3
O=C(CNc1cccc2ccccc12)N/N=C/c1ccc(C(=O)O)cc1,1970,-11,/,-26,/,/,/
COc1ccc(S(=O)(=O)NCCSCc2cccs2)cc1,15502,-15,6,-3,3,0,2.0
CCOc1ccc(-n2c(-c3ccccc3)c[n+]3c2CCC3)cc1,4955,12,11,0,-1,1,5.7
Cc1ccc(-c2nc3ccccc3s2)cc1NC(=S)NC(=O)c1ccccc1,2842,-8,-3,-85,10,10,-6.7
Cc1cc(C)cc(NC(=O)COC(=O)CN=C2NS(=O)(=O)c3ccccc32)c1,4049,-4,10,2,2,8,8.5
CCCNNC(=O)C(O)(c1ccccc1)c1ccccc1,2061,0,4,6,-2,-3,5.1
NC(=O)CCN1CCN(Cc2nc(C(c3ccccc3)c3ccccc3)no2)CC1,4456,-6,13,-45,0,4,2.1
NCCCC[C@H]1CN=C(N)N1CCCCC1CCCCC1,4167,1,/,1,/,/,/
CN1CCN(C(=O)/C(=C\c2ccccc2)c2ccccc2)CC1,3447,3,9,1,/,/,15
COc1cccc(N2CCN(c3ccc4nnc(CCC(=O)Nc5ncccc5C)n4n3)CC2)c1,5698,9,3,-11,6,5,1.6
Clc1cc(Br)ccc1OCCCn1ccnc1,2461,9,/,-34,/,/,/
NNc1nc(NCc2ccccc2)nc(N2CCOCC2)n1,2875,3,-16,-28,/,/,4.9
Cc1ccc(Cn2cc(S(=O)(=O)c3ccc(C(C)C)cc3)c(=O)c3cc4c(cc32)OCO4)cc1,2086,-6,-14,-22,-1,17,6.4
CCn1c(CC(=O)Nc2ccccc2F)nnc1SCC(=O)NC1CCCCC1,2987,1,-3,-1,-1,-5,-2.0
CCc1nnc(NS(=O)(=O)c2ccc(N=Cc3c(O)n(-c4ccccc4)c(=O)[nH]c3=O)cc2)s1,2309,6,20,-10,/,/,3.6
CC(C)(C)C(=O)Nc1cccc(-c2nc3ccccc3c(=O)o2)c1,13627,15,1,2,11,4,2.9

# Next part
SMILES,Autofluor counter,BJeLR viability,Sa ugtP lethal,PrP UTR inh,Mtb hypoxia rep,Mtb hypoxia rep growth,Sa RN4220 lethal
Cc1ccc(C(=O)N/C(=C/c2ccco2)C(=O)OCN2C(=O)c3ccccc3C2=O)cc1,2016,3,13,-14,10,9,4.7
CC1CN(C(C)CO)C(=O)c2cc(NC(=O)c3ccncc3)ccc2OC1CN(C)S(C)(=O)=O (stereo not given),/,/,3,/,15,6,7.1
O=C(Nc1ccc(F)cc1)C(NC1CCCCC1)c1ccccc1 (stereo not given),4459,7,10,-9,15,3,7.3
CCn1c(SCC(=O)N/N=C/c2ccc(C)s2)nc2ccccc21,2094,21,/,-21,/,/,/
CNC(=O)c1[nH]cnc1C(=O)Nc1cccc(C)c1,4273,/,4,-11,9,15,2.2
C[C@]12CC[C@@H]3c4ccc(O)cc4C(=O)C[C@H]3[C@@H]1CC[C@@H]2O,5236,-1,/,-9&-25,/,/,/
O=C(Nc1nccs1)c1ccc2c(=O)n3c(nc2c1)CCCCC3,1960,10,-19,-114,0,0,3.1
CCNC(=S)N(Cc1ccco1)Cc1cc2cc3c(cc2[nH]c1=O)OCCO3,2513,-4,2,-23,9,3,6.6
Cn1c(SCC(=O)N2CCOCC2)nnc1-c1cccc(NC(=O)c2ccccc2)c1,3221,0,10,-18,13,14,6.5
CC1(C)CC(NC(=O)N2c3ccccc3Sc3ccccc32)CC(C)(C)N1,5761,-5,0,-15,10,19,-0.2
CCc1nnc(NC(=O)CSc2nnc(Cc3ccc(OC)cc3)o2)s1,9099,0,-9,-20,-7,7,-1.5
CCCCOc1cccc(C(=O)Nc2ccc(NC(=O)c3cccs3)cc2)c1,3795,9,-3,-18,7,0,-2.5
O=C(COC(=O)c1cccc(Cl)c1)NCc1ccccc1,4074,/,4,-8,3,7,0.7
COc1cccc(CNS(=O)(=O)c2ccc3c(c2)C(C)(C)C(=O)N3C)c1,5214,-3,-1,-25,2,-6,6.3
c1ccc(-c2cc3c(-n4cccc4)ncnc3o2)cc1,2900,3,-15,-34,6,8,3.0
CC(=O)Nc1ccc(S(=O)(=O)N(C)CC(=O)OCC(=O)c2ccc3c(c2)NC(=O)CO3)cc1,8888,/,3,3,-5,2,0.0

# Bioassay records from PubChem.
